# D2 agonist = human D2 receptor agonism in beta-arrestin assay | activation, % (no concentration beside the values) | P14416 | DiscoveRx PathHunter D2 beta-arrestin, luminescence, 90 min; 100% = 57 uM dopamine signal | 360,000 compounds, 0.084% hits; in the data active = activation above about 40%; inconclusive = about 15% to 40%; inactive = below about 15%; note: compound concentration not given in the record; the text of the record calls up to 30% inactive
# Target sequence (P14416 whole entry, looked up): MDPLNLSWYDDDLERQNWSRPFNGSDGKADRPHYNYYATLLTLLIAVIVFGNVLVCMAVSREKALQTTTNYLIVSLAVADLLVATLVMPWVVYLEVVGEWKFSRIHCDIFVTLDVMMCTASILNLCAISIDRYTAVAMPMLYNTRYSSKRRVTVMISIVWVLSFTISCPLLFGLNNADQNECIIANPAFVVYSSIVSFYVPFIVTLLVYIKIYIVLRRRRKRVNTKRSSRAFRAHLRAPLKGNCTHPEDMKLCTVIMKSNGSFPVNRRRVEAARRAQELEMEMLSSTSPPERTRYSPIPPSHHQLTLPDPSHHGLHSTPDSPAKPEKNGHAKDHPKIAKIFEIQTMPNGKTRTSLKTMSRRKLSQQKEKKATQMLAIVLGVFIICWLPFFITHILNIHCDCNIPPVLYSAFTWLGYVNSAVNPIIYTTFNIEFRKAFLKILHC
#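 DiscoveRx PathHunter D2 beta-arrestin cells (2,100/well) attached overnight, then compound-stimulated 90 min at 37 C in HBSS/10 mM HEPES/0.1% Tween-20 buffer; beta-galactosidase complementation read by luminescence after 1 h at ambient temperature. Dopamine 57 uM final (EC100) as control.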
# PINK1 modulator = PINK1 expression modulation. PINK1 immunofluorescence, high-content cytometry, 24 h. Potency, µM (doses to about 76.6 µM), for inactives: at the highest dose activation (PINK1 increase), most hits filed as activators. 410,000 compounds, 0.2% hits; active = well fitted activation curve with a large enough effect; inconclusive = small, poorly fitted or top-dose-only effect; inactive = flat fitted curve, though single readings scatter; cell line not stated here;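 note: potency is the fitted concentration of half-maximal effect; % of control where 0% means no effect; nearly all actives have a fitted effect of over 65% in size; a mitochondrial uncoupler was the plate control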
#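 Cells are seeded, rested 12 hours, then given compound at five concentrations or DMSO for 24 hours. After fixation, blocking and antibody staining, PINK1 amount and mitochondrial localization are scored; CCCP serves as control.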
# Six1-Eya2 blk = blocks human Six1 binding to Eya2; Q15475+O00167; AlphaScreen GST-Six1/His-Eya2 binding, biochemical; active compounds read low; control for the full effect not named in the record; activity change, % (concentration not given with the values); 360,000 compounds, 0.56% hits; AID 651725; in the data active = activity change below about -65%; inconclusive = about -30% to -65%; inactive = above about -30%; note: % is set by controls: 0 for no effect and ±100 for the full control effect
#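 GST-Six1 + His-Eya2 (5X stock: 250/500 nM); Tris pH 8.0, 300 mM NaCl, 0.05% BSA, 0.02% Tween 20; GSH donor/Ni acceptor beads; 1 h 37 °C dark; AlphaScreen readout.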
# TRPML1 blocker = inhibitors of human TRPML1 channel | Q9GZU1 | TRPML1-inducible cells, Ca2+ dye fluorescence, FDSS; active compounds read low; inhibition of EC80 agonist-evoked calcium signal | activity change, negative = inhibition, % (concentration not given with the values) | 390,000 compounds, 0.02% hits; in the data active means activity change below about -50%; inconclusive means about -30% to -50%; inactive means above about -30%;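 note: stimulus is agonist 54-4 at its EC80 concentration; % is set by controls: 0 for no effect and ±100 for the full control effect; the text of the record puts the active cut at -80%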
# Target sequence (Q9GZU1 whole entry, looked up): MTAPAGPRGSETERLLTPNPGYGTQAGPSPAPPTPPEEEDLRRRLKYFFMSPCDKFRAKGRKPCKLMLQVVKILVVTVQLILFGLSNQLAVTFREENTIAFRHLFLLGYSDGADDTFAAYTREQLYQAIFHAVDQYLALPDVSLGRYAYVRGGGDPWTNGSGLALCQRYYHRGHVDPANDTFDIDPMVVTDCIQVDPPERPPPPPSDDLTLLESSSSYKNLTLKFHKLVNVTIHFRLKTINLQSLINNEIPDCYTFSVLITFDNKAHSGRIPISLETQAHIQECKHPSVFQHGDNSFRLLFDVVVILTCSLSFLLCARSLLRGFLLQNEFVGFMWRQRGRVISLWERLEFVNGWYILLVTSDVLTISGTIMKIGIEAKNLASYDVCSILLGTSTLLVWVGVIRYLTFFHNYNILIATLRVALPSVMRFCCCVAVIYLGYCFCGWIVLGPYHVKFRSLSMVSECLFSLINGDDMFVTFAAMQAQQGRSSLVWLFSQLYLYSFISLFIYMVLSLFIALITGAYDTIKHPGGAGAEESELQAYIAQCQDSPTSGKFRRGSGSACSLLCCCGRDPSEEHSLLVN
#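 TRPML1-DL cells, Tet-induced overnight (~16 h, 37 °C) at 1,500 cells/well, were loaded with Ca8 no-wash dye plus quencher for 45-90 min at room temperature. Compounds were pinned during FDSS kinetic reading; agonist 54-4 at EC80 (4 uM final) then added.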
# TRPML1 ag = agonists of human TRPML1 channel; TRPML1-expressing cells, Ca2+ dye fluorescence, FDSS; host cell line not named in the record; reference of the full effect not given here; activation, % (test concentration not listed); 410,000 compounds, 0.12% hits; Q9GZU1; in the data active = activation above about 50%; inconclusive = about 30% to 50%; inactive = below about 30%; note: 0% is about no effect; the text of the record puts the active cut at 80%
#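 TRPML1-DL cells, Tet-induced overnight (~16 h, 37 degrees C), loaded 45-90 min at room temperature with Ca8 no-wash calcium dye plus quencher. FDSS fluorescence: 10 s baseline, compound pin-transfer, 110 s agonist read, then EC80 54-4 (4uM final) and 110 s antagonist read.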
# CtBP-E1A inh = blocks the CtBP interaction with E1A; AlphaScreen GST-E1A/His-CtBP binding, 1536-well; active compounds read low; control for the full effect not named in the record; activity change, % (test concentration not listed); 340,000 compounds, 0.49% hits; in the data active means activity change below about -65%; inconclusive means about -30% to -65%; inactive means above about -30%; note: % is set by controls: 0 for no effect and ±100 for the full control effect
#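 Homogeneous bead-based format: GST-tagged E1A captured on glutathione donor beads, His-tagged CtBP on nickel acceptor beads; compounds precede bead addition by 2 h at 37 °C.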
# Active calls of the source: *; ? = inconclusive; . = no result given; [ ] = remark or other dose.
SMILES,D2 agonist,PINK1 modulator,Six1-Eya2 blk,TRPML1 blocker,TRPML1 ag,CtBP-E1A inh
COc1cc2c(cc1NC(=O)COC(=O)/C=C/c1ccc([N+](=O)[O-])cc1)oc1ccccc12,-1.5,3.1%,0.5,4.2,0.8,-5.2
COc1ccc(N2CCN(C(=O)CCc3nc(-c4ccc(C)cc4)no3)CC2)cc1,-1.8,0.1%,-3.3,-18.4,0.2,-5.0
CC(=O)c1cccc(NC(=O)COC(=O)COc2c(Cl)cc(Cl)c3ccc(C)nc23)c1,-0.4,1.7%,4.2,14.2,0.2,-3.8
Cc1nn2c(=O)cc(COC(=O)c3cccc(NC(=O)CCc4ccccc4)c3)nc2s1,.,2.5%,.,5.3,1.5,.
Cc1cccc(NC(=O)N(C)Cc2cccs2)c1,-2.3,-1.2%,1.9,-2.0,-0.1,0.8
Cc1ccc(C(=O)Oc2ccc3ccc(=O)oc3c2)cc1,-1.3,2.2%,-26.3,.,.,.
CCc1nc2c(c(=O)c3ccccc3n2C)c(=O)n1-c1ccc(F)cc1,-1.0,-1.3%,-15.3,11.8,1.0,-13.2
COc1ccc2cc(CCN3C(=O)c4ccccc4C3=O)c(=O)[nH]c2c1,-0.5,6.0%,0.7,25.4,-0.5,-0.3
COc1ccc(C)cc1NC(=O)c1ccc2c(O)c(S(=O)(=O)c3ccccc3)c(=O)[nH]c2c1,-1.3,-1.4%,-5.2,-9.1,0.0,-12.7
CN(C(=O)COC(=O)/C=C/c1ccc(S(=O)(=O)N2CCc3ccccc32)cc1)C1CCS(=O)(=O)C1 (stereo not drawn),7.6,-2.8%,6.7,10.2,-0.5,5.2
CCCCCc1nnc(NC(=O)C2COc3ccccc3O2)s1 (stereo not drawn),0.6,-0.2%,0.2,0.2,-0.4,-2.6
COc1cccc(NC(=O)CN(C)C(=O)CCNS(=O)(=O)c2ccc(C)cc2)c1,5.6,0.3%,3.5,35.4,2.0,-0.7
O=C(CCCN1C(=O)/C(=C\c2ccccc2)SC1=S)Nc1cccc(C(=O)O)c1,-4.5,0.5%,-17.1,-12.3,0.1,-16.7
COC(=O)CSc1nnc2cc(C)c3ccccc3n12,-0.5,0.2%,-16.1,8.2,0.9,-10.7
COc1ccc(NC(=O)CSc2nc3ccccc3c(=O)n2-c2ccc3c(c2)OCO3)c(OC)c1,-1.4,-0.1%,4.6,16.6,0.0,-1.0
O=C(CSc1ccccn1)Nc1nc2ccc(Br)cc2s1,-1.2,6.3%[38.3 µM],5.6,-5.5,2.3,5.8
Cc1ccc(C(=O)NNC(=S)NC(=O)c2ccco2)cc1,-5.5,1.2%,-0.3,-2.5,?,-4.1
CCOc1ccc(CNc2nnnn2C)cc1OC,-3.5,-1.3%,-0.9,6.0,-0.1,5.4
CC(C)N(C(=NCc1ccccc1)NC(=O)c1ccccc1)C(C)C,-2.0,-0.1%,3.4,-9.6,-0.9,3.4
O=C(NC(=S)Nc1ccc(S(=O)(=O)Nc2nccs2)cc1)c1cccc(F)c1,-4.4,8.8%,2.6,5.3,-0.2,-2.6
O=C(COC(=O)CSc1ccccc1)Nc1ccc(F)cc1F,1.2,1.3%,2.3,-12.2,0.1,11.8
CCn1cc(/C=C(\NC(=O)c2ccccc2OC)C(=O)NCCN2CCOCC2)c2ccccc21,0.5,1.6%,-6.0,-8.9,-0.9,4.0
CC(=O)c1ccc(OCc2cc(C(=O)N3CC[C@@H]4CCCC[C@H]4C3)no2)cc1,-0.5,0.6%,8.5,-5.9,1.3,-3.2
O=C(C1CCN(Cc2ccc(OCc3ccccc3)cc2)CC1)N1CCCC1,-2.3,-6.1%,0.6,-1.3,-0.8,11.0
COc1ccc(-c2nn3c(-c4ccco4)nnc3s2)cc1OC,-1.8,-0.5%,-78.3*,6.0,-0.6,-85.7*
Cc1sc(C(=O)Nc2ccc3ccccc3c2)cc1CC(=O)O,0.0,2.7%,-5.1,-4.0,-0.7,-0.4
CC(=O)N1CCN(S(=O)(=O)c2ccc(S(=O)(=O)NCC(C)C)cc2)CC1,-0.3,-26.0%[38.3 µM],4.5,-5.2,0.0,8.7
Cn1c(=O)c2c(nc(SCC(=O)Nc3ccccc3)n2C)n(C)c1=O,0.8,2.9%,-8.4,23.7,-0.3,1.1
Cc1ccc(Nc2nnc(SC(C)C(=O)NCC3CCCO3)s2)cc1C (stereo not drawn),-0.3,0.2%,?,-19.5,0.5,?
COc1cc2c(c(OC)c1OC)-c1ccc(NCc3ccccc3)c(=O)cc1C(NC(C)=O)CC2 (stereo not drawn),-3.4,8.5%,9.9,11.6,-0.5,1.0
Cc1cccc(-c2nc3scc(CCNC(=O)c4ccc(Br)o4)n3n2)c1,.,0.2%,.,-12.6,-0.2,.
Nc1cc(-c2ccc(Cl)cc2)nn1-c1ccccc1,5.4,9.5%,-6.7,6.6,-0.7,-2.0
CC(=O)Nc1ccc(S(=O)(=O)NCC(=O)NCCc2ccc(S(N)(=O)=O)cc2)cc1,-1.7,-1.7%,2.3,0.5,-0.1,1.9
CCC(=O)NC(=S)Nc1cccc(NC(=O)c2ccccc2)c1,4.7,-1.6%,27.8,14.0,-0.4,9.0
COc1ccc(/C=N/OCC(=O)N(Cc2ccccc2)c2ccccc2C(=O)O)cc1,0.4,-0.7%,-6.4,8.1,-0.5,2.3
COc1ccc2c(C)cc(SCC(=O)N3CCOCC3)nc2c1,-1.5,-0.8%,-1.4,5.3,4.8,-0.3
CCOC(=O)c1c(NC(=O)C2CCN(S(=O)(=O)c3ccc(Cl)cc3)CC2)sc2c1CCCC2,1.5,4.7%,-6.8,0.1,0.8,-2.9
CN(Cc1ccccn1)C(=O)c1cc(COc2ccc(F)cc2Cl)on1,-0.4,1.0%,-10.4,2.4,-0.6,-1.9
Cc1cccc(OC(C)C(=O)N/N=C\c2ccncc2)c1 (stereo not drawn),-4.5,-0.7%,4.7,12.8,-0.6,3.1
COCCN(Cc1cn[nH]c1-c1ccc2cc(OC)ccc2c1)C(C)C,2.3,0.1%,8.0,-14.9,-1.5,1.3
COc1ccc(CCNC(=O)c2cccc3c2C(=O)N(C2CCCCC2)C3)cc1OC,1.4,2.2%,-5.6,17.1,1.3,-1.7
O=c1cnnc(Nc2ccccc2)[nH]1,1.8,-1.7%,11.1,6.2,0.2,2.0
Nc1nc(Nc2cccc(F)c2)nc(NCCO)c1[N+](=O)[O-],-3.7,-1.1%,-22.6,-7.8,0.3,-2.0
COc1ccc(NC(=O)Cn2ccn(-c3ccccc3)c(=O)c2=O)cc1,.,-0.3%,.,32.6,0.7,.
Cc1noc(C)c1S(=O)(=O)Nc1ccc(C(=O)Nc2ccc(C(C)C)cc2)cc1,.,1.8%,.,-6.4,-0.9,.
O=C1COc2ccc(C(=O)COC(=O)Cc3ccccc3F)cc2N1,-2.1,1.1%,1.2,-25.4,-1.9,2.5
CN1C(=O)c2ccccc2C(C(=O)O)C1c1cn(C)c2ccccc12 (stereo not drawn),-0.5,0.7%,4.0,-2.0,-0.3,1.5
C=CCOC(=O)C1=C(C)Nc2nnnn2C1c1cc(OC)ccc1OC (stereo not drawn),-2.8,2.1%,3.2,57.7,-0.1,-0.3
Cc1ccc(CS(=O)(=O)CC(C)(O)c2ccc(Cl)cc2)cc1 (stereo not drawn),-3.9,0.6%,-0.2,-2.3,2.1,0.0
O=C(Cn1cnc2ccccc2c1=O)Nc1ccccc1N1CCOCC1,2.6,2.8%,5.6,-11.8,-0.3,-13.8
# Other structures.
SMILES,D2 agonist,PINK1 modulator,Six1-Eya2 blk,TRPML1 blocker,TRPML1 ag,CtBP-E1A inh
COc1ccc(C(=O)NCCc2cnc[nH]2)cc1OC,-7.8,4.5%,-0.7,-3.0,0.5,0.0
O=C(C[n+]1cccc(/C=N/O)c1)N(Cc1ccccc1)Cc1ccccc1,-1.8,-1.2%,6.3,-22.3,-0.3,-11.3
Cc1ccc(OCC(=O)OC(C)CN(C)Cc2ccccc2)cc1 (stereo not drawn),-1.7,1.0%,2.6,12.8,-0.3,9.4
O=C(CSc1nnc(-c2ccc(F)cc2)o1)Nc1ccccc1N1CCOCC1,0.8,0.2%,-2.5,10.5,-0.4,5.0
CCCC1CCC(c2ccc(/C(N)=N/O)cc2)CC1 (stereo not drawn),-4.5,1.7%,-6.2,1.7,3.6,6.6
CCCn1c(C(C)NC(=O)c2ccccc2)nc2ccccc21 (stereo not drawn),-0.6,2.9%[38.3 µM],-4.7,3.9,-0.6,11.1
O=C(NC1CCCCCCC1)c1cccc(S(=O)(=O)N2CCOCC2)c1,-3.6,11.6%,0.7,-1.1,-0.8,15.0
COC(=O)CCC(=O)Nc1nnc(C(F)(F)F)s1,-2.2,1.5%,5.3,9.1,1.1,1.1
CCOC(=O)Nc1cccc(OCC(=O)Nc2ccc(OC)cc2OC)c1,-1.2,-2.8%,-4.8,7.9,1.6,-18.7
CCCCCCCC/C=C\CCCCCCCC(=O)NCCc1ccc(O)c(O)c1,100.1*,?,-2.5,30.2,-0.6,-8.6
COc1ccccc1OC(C)C(=O)Nc1ccccc1C(=O)NCc1cccnc1 (stereo not drawn),0.7,-0.4%,28.7,5.2,-0.1,4.1
CCn1ccnc1CN(C)C(=O)c1cc(COc2c(F)cccc2F)on1,-2.2,-1.1%,-2.2,1.9,0.5,.
COCCC(=O)N1CCOCC1c1cc(C(=O)Nc2ccccc2)no1 (stereo not drawn),-3.7,0.4%,1.8,.,0.0,10.9
CN(C)c1oc(-c2ccccc2Cl)nc1C#N,-6.3,-2.6%,-28.4,8.4,-0.8,17.5
CCOC(=O)c1c(C=O)c(C)n(Cc2ccccc2Cl)c1C,-0.2,-1.2%,-14.8,6.3,1.7,-21.9
CCCCOc1ccc(N(CC(=O)NC2CCCC2)C(=O)CCC(=O)Nc2ccccn2)cc1,-1.7,0.2%,-7.6,5.0,-0.7,5.7
Cc1cc(OCC(=O)Nc2ccc(S(=O)(=O)NC3=NCCCCC3)cc2)c(C(C)C)cc1Cl,2.4,3.1%,-6.3,12.0,0.7,-1.9
CCOC(=O)CC(=O)Nc1nnc(C(C)C)s1,-0.8,-1.8%,3.5,4.6,-0.6,0.2
CC(=O)c1ccc(N2C(=O)NC3(CCCCC3)C2=O)cc1,-2.9,2.0%,-1.8,1.2,-0.9,2.9
COc1ccc(CNC(=O)c2cc3c(=O)[nH]c4ccccc4c3s2)cc1,.,0.4%,.,-6.4,2.4,.
COc1cc(OC)c(NC(=O)Nc2nnc(N(C)C3CCCCC3)s2)cc1Cl,.,-0.4%,.,12.9,-0.3,.
CN(C)CC(O)COc1ccc(C(C)(C)c2ccc(OCC(O)CN(C)C)cc2)cc1 (stereo not drawn),2.7,-0.4%,4.1,7.5,1.3,-1.2
O=C(CNC(=O)c1cccs1)NCC(=O)OCc1ccc(F)cc1,-1.9,-0.2%,10.2,-5.9,0.6,.

# Quoted at random: two compounds from above, in no set order.
SMILES,D2 agonist,PINK1 modulator,Six1-Eya2 blk,TRPML1 blocker,TRPML1 ag,CtBP-E1A inh
COCCC(=O)N1CCOCC1c1cc(C(=O)Nc2ccccc2)no1 (stereo not drawn),-3.7,0.4%,1.8,.,0.0,10.9
CCn1ccnc1CN(C)C(=O)c1cc(COc2c(F)cccc2F)on1,-2.2,-1.1%,-2.2,1.9,0.5,.

# Source: PubChem
